PINK1 modulator: modulators of PINK1 expression | PINK1 immunofluorescence, high-content cytometry, 24 h | Potency, µM (highest dose often 76.6 µM), inactives show top-dose activation (PINK1 increase), usual class: activators | 410,000 compounds, 0.2% hits; active = well fitted activation curve with a large enough effect; inconclusive = small, poorly fitted or top-dose-only effect; inactive = flat fitted curve, though single readings scatter; cell line not stated here;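 also: potency is read from the fitted curve at half-maximal effect; % of control where 0% means no effect; nearly all actives have a fitted effect of over 65% in size; a mitochondrial uncoupler was the plate control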
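Fluorescence from anti-PINK1 antibody, together with nuclear and cell stains, was scanned on a laser-scanning cytometer. Before staining, stable-line cells were incubated 24 hours with compounds at 5 concentrations; primary antibody 12 h at 10 degrees C.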
CtBP-E1A inh: CtBP/E1A binding inhibition; AlphaScreen GST-E1A/His-CtBP binding, 1536-well; active compounds read low; control for the full effect not named in the record; activity change, % (no concentration beside the values); 340,000 compounds, 0.49% hits; AID 651724; in the data active means activity change below about -65%; inconclusive means about -30% to -65%; inactive means above about -30%; also: % is scaled to controls: 0 for no effect and ±100 for the full control effect
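Protein mix (5X: 125 nM each GST-E1A, His-CtBP) was incubated with pinned compound 2 h at 37 deg C in dark, in 50 mM Tris pH 8.0 buffer with 300 mM NaCl. Glutathione donor and nickel acceptor beads followed; AlphaScreen signal read after 1 h.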
TRPML1 ag: agonists of human TRPML1 channel. Q9GZU1. activation, % (concentration not given with the values). TRPML1-expressing cells, Ca2+ dye fluorescence, FDSS; host cell line not named in the record; reference of the full effect not given here. 410,000 compounds, 0.12% hits; in the data active = activation above about 50%; inconclusive = about 30% to 50%; inactive = below about 30%; also: 0% is about no effect; the text of the record puts the active cut at 80%
Target sequence (Q9GZU1 whole entry, looked up): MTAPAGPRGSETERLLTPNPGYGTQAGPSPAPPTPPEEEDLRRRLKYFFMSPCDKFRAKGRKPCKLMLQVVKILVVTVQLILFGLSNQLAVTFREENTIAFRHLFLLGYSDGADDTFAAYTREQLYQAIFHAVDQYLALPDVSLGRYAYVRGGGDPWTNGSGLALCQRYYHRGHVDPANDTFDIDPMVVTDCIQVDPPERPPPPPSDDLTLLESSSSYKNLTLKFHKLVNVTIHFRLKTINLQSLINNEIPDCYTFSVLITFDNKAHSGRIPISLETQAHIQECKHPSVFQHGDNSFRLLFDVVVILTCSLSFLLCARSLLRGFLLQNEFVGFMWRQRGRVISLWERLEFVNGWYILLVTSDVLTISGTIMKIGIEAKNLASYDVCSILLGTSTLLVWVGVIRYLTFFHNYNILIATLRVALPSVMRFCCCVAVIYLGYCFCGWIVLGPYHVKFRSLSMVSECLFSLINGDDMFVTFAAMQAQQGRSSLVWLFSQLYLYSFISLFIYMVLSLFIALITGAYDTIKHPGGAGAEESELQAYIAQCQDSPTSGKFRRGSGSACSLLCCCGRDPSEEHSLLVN
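In this qHTS format, compounds were pin-transferred onto Ca8-dye-loaded TRPML1-DL cells induced with Tet overnight, and intracellular Ca2+ fluorescence was recorded kinetically for 110 s after a 10 s baseline. A subsequent 4uM final 54-4 (EC80) addition followed by a second 110 s read served as the antagonist phase.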
D2 agonist: human D2 receptor agonism in beta-arrestin assay; DiscoveRx PathHunter D2 beta-arrestin, luminescence, 90 min; 100% = 57 uM dopamine signal; P14416; activation, % (no concentration beside the values); 360,000 compounds, 0.084% hits; AID 624465; in the data active = activation above about 40%; inconclusive = about 15% to 40%; inactive = below about 15%; also: compound concentration not given in the record; the text of the record calls up to 30% inactive
Target sequence (P14416 whole entry, looked up): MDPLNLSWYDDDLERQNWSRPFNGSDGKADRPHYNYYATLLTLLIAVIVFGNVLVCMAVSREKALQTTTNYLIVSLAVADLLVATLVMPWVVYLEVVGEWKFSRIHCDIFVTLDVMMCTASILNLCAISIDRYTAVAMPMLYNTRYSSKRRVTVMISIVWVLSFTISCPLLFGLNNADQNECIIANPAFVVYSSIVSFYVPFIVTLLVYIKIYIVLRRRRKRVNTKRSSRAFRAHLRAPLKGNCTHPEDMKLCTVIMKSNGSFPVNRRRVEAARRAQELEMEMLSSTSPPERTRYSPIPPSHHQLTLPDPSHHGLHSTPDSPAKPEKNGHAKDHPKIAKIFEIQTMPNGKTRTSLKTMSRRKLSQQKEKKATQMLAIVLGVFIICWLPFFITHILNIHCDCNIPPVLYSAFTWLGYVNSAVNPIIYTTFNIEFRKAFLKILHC
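DiscoveRx PathHunter D2 beta-arrestin cells (2,100/well) attached overnight, then compound-stimulated 90 min at 37 C in HBSS/10 mM HEPES/0.1% Tween-20 buffer; beta-galactosidase complementation read by luminescence after 1 h at ambient temperature. Dopamine 57 uM final (EC100) as control.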
D2 potentiator: potentiates the human D2 dopamine receptor allosterically | potentiation, % (no concentration beside the values) | P14416 | DiscoveRx D2 beta-arrestin cells, luminescence, 90 min; 100% = 57 uM dopamine signal | 360,000 compounds, 0.23% hits; active = potentiation of 50% or more; inconclusive = 30% to 50%; inactive = 30% or less;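 also: compound concentration not given in the record; tested on top of an EC20 dose of dopamine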
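PathHunter beta-arrestin assay in DiscoveRx D2 cells. Compounds were added with an EC20 of dopamine (50 nM final) for 90 min at 37 deg C. Luminescence was read 1 h after detection reagent, with 57 uM dopamine as the EC100 control.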
Six1-Eya2 inh: blocks human Six1 binding to Eya2; Q15475+O00167; AlphaScreen GST-Six1/His-Eya2 binding, biochemical; active compounds read low; control for the full effect not named in the record; activity change, % (test concentration not listed); 360,000 compounds, 0.56% hits; AID 651725; in the data active = activity change below about -65%; inconclusive = about -30% to -65%; inactive = above about -30%; also: % is scaled to controls: 0 for no effect and ±100 for the full control effect
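AlphaScreen with GST-Six1 and His-Eya2 (5X mix: 250 nM and 500 nM), glutathione donor and nickel acceptor beads; buffer 50 mM Tris pH 8.0, 300 mM NaCl, 1 mM TCEP; 1 h at 37 C in the dark.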
Numbers without * were called inactive; ? = inconclusive; . = no result given; [ ] = remark or other dose.

SMILES	PINK1 modulator	CtBP-E1A inh	TRPML1 ag	D2 agonist	D2 potentiator	Six1-Eya2 inh
CCCCOC(=O)c1ccc(NC(=O)COC(=O)C2CC2C)cc1 (configuration not stated)	0.6%	8	1.0	0.0	1	4
Cc1ccc(S(=O)(=O)Oc2ccc(/C=C(/NC(=O)c3ccccc3)C(=O)Nc3ccccc3)cc2)cc1	0.2%	5	0.2	-3.2	-6	-4
COC(=O)Nc1ccc(Cc2ccncc2)cc1	0.1%	8	-0.5	-2.2	1	9
NS(=O)(=O)c1ccc(NC(=O)c2ccc(S(=O)(=O)N3CCCCC3)cc2)cc1	8.3%	.	-1.4	0.0	-1	1
CN1CC(=O)N(CC(=O)Nc2ccc(N(C)C)cc2)c2ccccc2C1=O	0.1%	3	0.1	7.7	12	2
COc1cc(C2C3=C(Nc4nc(N)[nH]c(=O)c42)c2ccccc2C3=O)ccc1O (configuration not stated)	0.1%	?	-0.3	-3.2	-5	?
COc1cccc(NS(=O)(=O)c2c(C)nc3sccn3c2=O)c1	0.7%	7	0.0	-7.8	-2	-1
O=C(O)CC1S/C(=N/N=C/C2CC=CCC2)NC1=O (configuration not stated)	1.2%	0	-0.9	-5.9	-5	-20
C=C1CSc2nc3ccccc3c(=O)n21	0.5%	-14	-1.2	-3.4	-11	-23
CCN1CCN(c2ncnc3scc(-c4ccc(OC)cc4)c23)CC1	0.3%	0	-0.5	78*	5	-3
CN(C)c1nc(N)nc(CSc2nnnn2-c2ccc(F)cc2)n1	1.5%[38.3 µM]	0	1.0	0.2	-6	-1
CCn1c(Cc2c(C)[nH]c3ccccc23)n[nH]c1=S	0.5%	-1	-0.8	0.0	-3	0
CN(C)CCCn1c(=S)[nH]c2sc3c(c2c1=O)CCCC3	-0.3%	3	-0.6	-3.4	-10	-21
Cc1cc(C(=O)CSc2nnc(-c3ccccc3F)o2)c(C)n1Cc1cccs1	2.1%	5	-0.2	-1.6	8	-10
Cc1cc(F)ccc1-c1cc(C(=O)NCc2cccs2)[nH]n1	1.2%	-5	-1.0	0.4	-14	-5
O=C(NCc1cccc(Cl)c1)c1cccc(OC2CCN(C(=O)C3CC3)CC2)c1	2.2%	-3	0.1	-2.5	-7	-2
Nc1nc(CN2CCN(C(c3ccccc3)c3ccccc3)CC2)nc(Nc2ccccc2)n1	18%	-12	0.0	-5.0	-9	-22
CC(C)N1CCC1(C)C(=O)Nc1ccccc1OC(F)F (configuration not stated)	2.5%	-2	-1.1	12	8	0
CCOc1ccccc1NC(=O)c1cc(Cl)ccc1NC(=O)c1ccco1	?	6	-0.2	0.1	-6	2
Cc1cc(C(=O)OCC(=O)c2ccccc2)c2ccccc2n1	-0.2%	-2	-0.4	-3.7	-1	-3
CC(=O)NC1CC2CCCC(C1)N2C(=O)Nc1ccc(Cl)c(C(F)(F)F)c1 (configuration not stated)	-0.4%	-10	0.4	-4.3	-19	-1
COc1ccccc1N1CCN(Cc2ccc(OC)c3ccccc23)CC1	-4.7%[38.3 µM]	-5	1.5	-0.1	-17	-9
Cc1ccc(OCCOCCN2CCCC2)c(Br)c1	0.0%	-2	0.1	-3.9	-6	7
COc1cccc(NC(=O)COC(=O)Cc2ccccc2[N+](=O)[O-])c1	2.4%	-3	-1.0	-1.7	-14	-8
COc1cc2c(cc1NC(=O)c1cccc(S(=O)(=O)N(C)C)c1)oc1ccccc12	-0.2%	10	-0.1	-2.3	-7	10
CC1CCc2[nH]c3ccc(C(=O)N(C)CC(=O)Nc4cccc(F)c4)cc3c2C1 (configuration not stated)	-1.4%	-9	0.2	0.9	2	-8
CSc1nnc(C2CCN(CC(=O)Nc3ccccc3N3CCOCC3)CC2)n1C(C)C	1.0%	-10	-0.2	-0.3	-7	2
Cn1c(=O)c2c(-c3ccc(OC(F)F)cc3)cc(-c3ccccc3)nc2n(C)c1=O	0.1%	-6	1.2	-3.7	-3	-20
COc1ccc(CNC(=O)Cn2cc([N+](=O)[O-])cn2)cc1	-0.5%	-3	0.8	-4.5	-2	5
COc1ccc(-n2c(=S)[nH]c3cc(C(=O)Nc4cc(OC)c(OC)c(OC)c4)ccc3c2=O)c(OC)c1	-0.2%	-27	0.4	0.9	-4	?
Cc1ccc([N+](=O)[O-])cc1NC(=O)Nc1ccc(S(N)(=O)=O)cc1	3.1%	.	1.1	-3.0	-7	-2
CCN(CC)C(=O)C(C)N(C#N)c1nc(Cl)nc(N(C)C)n1 (configuration not stated)	-0.2%	-11	-0.4	-0.8	-16	0
O=C(CN1CCOCC1)N/N=C/C(Br)=C\c1ccccc1	-0.8%	-81*	0.7	-2.7	2	-22
COCc1c(C(=O)OC/C(O)=C(\C#N)c2nc3ccccc3[nH]2)oc2ccccc12	11%	.	-0.5	1.6	2	5
CN1C(=O)CSc2ccc(NC(=O)N3CCN(c4ccccc4)CC3)cc21	-1.6%	-3	0.3	-1.8	-11	-4
COc1cc2ccccc2cc1-c1nnc(COc2ccccc2)o1	3.7%	1	3.8	-1.8	-2	-1
O=S(=O)(CCNCc1ccco1)NC1CCCCC1	-1.2%	5	-1.1	-3.3	-7	6
CC1C/C(=N/N=C2/NC(=O)CS2)CC(C)(C)C1 (configuration not stated)	-1.2%	2	-0.7	-10	-15	6
CC1(C)CC(=O)C(=CN2CCN(C(=O)c3ccco3)CC2)C(=O)C1	2.1%	11	0.4	7.5	-3	14
CCCCN(C(=O)c1cccc(S(=O)(=O)N2CC(C)OC(C)C2)c1)c1c(N)n(CCCC)c(=O)[nH]c1=O (configuration not stated)	-0.7%	-1	0.4	-3.8	-1	9

The closing seven records of the part above are carried over, then new ones follow:
SMILES	PINK1 modulator	CtBP-E1A inh	TRPML1 ag	D2 agonist	D2 potentiator	Six1-Eya2 inh
COCc1c(C(=O)OC/C(O)=C(\C#N)c2nc3ccccc3[nH]2)oc2ccccc12	11%	.	-0.5	1.6	2	5
CN1C(=O)CSc2ccc(NC(=O)N3CCN(c4ccccc4)CC3)cc21	-1.6%	-3	0.3	-1.8	-11	-4
COc1cc2ccccc2cc1-c1nnc(COc2ccccc2)o1	3.7%	1	3.8	-1.8	-2	-1
O=S(=O)(CCNCc1ccco1)NC1CCCCC1	-1.2%	5	-1.1	-3.3	-7	6
CC1C/C(=N/N=C2/NC(=O)CS2)CC(C)(C)C1 (configuration not stated)	-1.2%	2	-0.7	-10	-15	6
CC1(C)CC(=O)C(=CN2CCN(C(=O)c3ccco3)CC2)C(=O)C1	2.1%	11	0.4	7.5	-3	14
CCCCN(C(=O)c1cccc(S(=O)(=O)N2CC(C)OC(C)C2)c1)c1c(N)n(CCCC)c(=O)[nH]c1=O (configuration not stated)	-0.7%	-1	0.4	-3.8	-1	9
COc1ccc([N+](=O)[O-])cc1N(CC(=O)O)S(C)(=O)=O	2.5%	7	0.4	4.7	-6	-7
COc1cccc(CN2C(=O)C3(C(C#N)=C(N)OC4=C3C(=O)CCC4)c3ccccc32)c1 (configuration not stated)	12%[38.3 µM]	5	0.2	1.8	-1	3
CC1(c2ccc3c(c2)OCO3)NC(=O)N(CC(=O)c2ccc[nH]2)C1=O (configuration not stated)	-4.1%	0	0.2	0.9	18	-2
Cc1c(C(=O)Oc2ccc(F)cc2)sc2ncn(Cc3cccc(F)c3)c(=O)c12	13%	0	1.2	0.0	-8	-6
Cc1c(C)n(CC(O)CN(CCO)CCO)c2ccccc12 (configuration not stated)	-0.6%	-2	0.1	4.2	-5	-1
COc1cc(NC(=S)NCCO)c(OC)cc1Cl	2.7%	-3	0.2	-4.1	-11	5
Cc1ccccc1N1CCN(CCCCN2C(=O)C3CCCN3C2=O)CC1 (configuration not stated)	0.8%	0	0.0	-3.6	-31	9
Cn1c(SCC(=O)NC2CCCCC2)nnc1-c1cc2ccccc2o1	0.3%	4	-0.1	-2.8	5	0
Cc1ccc(Cl)cc1N1CCN(C(=O)Cc2ccc(-n3c(=O)[nH]c4ccsc4c3=O)cc2)CC1	0.1%	-1	1.3	-2.7	-5	-9
COc1ccc(Cc2nc3ccc(C(=O)NCCCSC)cc3o2)cc1OC	-1.0%	-16	0.8	-2.0	0	2
COC(=O)C1=C(C)NC(=S)NC1c1sccc1C (configuration not stated)	1.1%	-3	-0.2	1.3	-5	-18
Cc1cc(C(=O)N2CCC2(C)C(=O)NCC(C)(C)C)nn1C (configuration not stated)	1.0%	9	-0.2	-1.5	-8	12
CN(CC(=O)NCc1ccccc1Cl)CC(=O)Nc1cccc(F)c1	0.5%	7	-0.4	-0.8	-2	-2
N#CCCN(Cc1ccccc1)C(C(=O)NC1CCCCC1)C1CC1 (configuration not stated)	3.4%	8	-0.2	-1.8	-8	4
COc1ccccc1-c1csc(C(O)c2ccc(F)cc2)n1 (configuration not stated)	12%	8	0.0	2.7	-4	0
Cc1ccc(-c2csc3ncnc(SCC(=O)NCC4CCCO4)c23)cc1 (configuration not stated)	0.9%	3	0.5	0.2	-1	-1
Cc1cccc(NC(=O)c2oc3ccc(S(=O)(=O)N4CCOCC4)cc3c2C)c1C	?	-20	1.8	3.1	-1	-8
Cc1ccc(C(=O)N(CC(=O)Nc2sc(C)c(C)c2C(N)=O)C2CCCC2)cc1	0.8%	0	-0.3	-1.8	-12	-11
O=C1C=C(c2cc3ccccc3s2)C[C@@H](c2ccc3c(c2)OCO3)C1	0.7%	-6	0.1	-2.3	-14	-1
CCn1nc(C(=O)OCC(=O)N2CC(=O)Nc3ccccc32)c2ccccc2c1=O	-0.4%	0	1.8	1.6	-2	4
COc1ccc2sc(N3C(=O)C4CC=C(C)CC4C3=O)nc2c1 (configuration not stated)	-1.1%[38.3 µM]	-20	2.2	0.4	-7	-3
Cc1nn2c(-c3ccccn3)ccnc2c1Br	0.3%	2	1.8	-3.7	0	10
COc1ccc(C2C(C(=O)NCC3CCCO3)CCC(=O)N2c2ccc3c(c2)OCO3)cc1 (configuration not stated)	0.0%	-1	0.5	-1.0	11	8
CCOC(=O)C(NC(C)=O)C(OC(C)=O)c1cccc([N+](=O)[O-])c1 (configuration not stated)	0.2%	2	0.4	-3.2	3	2
O=C(Nc1nccs1)c1ccc(Br)c(S(=O)(=O)N2CCOCC2)c1	-1.4%	-13	-1.0	-2.8	-12	-4
COc1cc(/C=C2\SC(=S)N(NC(=O)c3ccccc3OC)C2=O)ccc1O	3.4%	?	14	-6.0	-17	?
CCCCCCCSc1nsc(N)n1	-0.2%	0	-1.0	-2.0	-9	-2
CCN1CCN(CC(=O)N2N=C(c3cccs3)CC2c2ccc(F)cc2)C(=O)C1=O (configuration not stated)	-0.2%	-1	-0.1	2.2	6	-2
COc1ccc(C(=O)N2CCC(n3nnc4cc(F)ccc43)CC2)cc1OC	1.5%	13	1.7	1.8	-9	6
O=C1C=C(NC2=CC3OC(c4ccccc4)OCC3OC2=O)CCC1 (configuration not stated)	28%	0	4.6	-2.5	-22	-11
OC(c1ccc2c(c1)OCO2)c1nccc2ccccc12 (configuration not stated)	.	38	0.5	-2.4	-9	19

Bioassay records as filed in PubChem BioAssay.
